Assay outcomes as filed in PubChem BioAssay.
AID504770 – growth inhibition of E. coli YBA685, primary screen, V. cholerae RctB inhibitors | E. coli YBA685 rctB-dependent plasmid, OD600 growth, 3 h; hits give low values | z-score (no concentration beside the values) | AID 504770, 2011 | 130,000 tested, 0.27% active;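 active means z-score under -2 on both plates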;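 further: wells of about 30 µL received 100 nL stock; score is relative to mean and SD of the test wells; the first replicate is given; strong numbers were not always called active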
Ba CapD inh – Bacillus anthracis CapD inhibitors, primary screen, biochemical, fluorescence intensity; CapD gamma-glutamyltranspeptidase (Bacillus anthracis Ames Ancestor); purified CapD enzyme, fluorescence intensity read-out; hits give low values; some hits fall short of the stated cut; z-score (concentration not given with the values); 140,000 tested, 0.23% active; AID 492967, 2010;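 active means z-score under -4 in either of two replicates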;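 further: stock transfer was 100 nL into about 40 µL; score is relative to mean and spread of the plate; one replicate is shown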
Starred values were filed as active, the others as inactive; i = inactive; . = not tested or not shown; & = joins results of further samples.

SMILES,AID504770,Ba CapD inh
CN1CCN(C(=O)c2cccc3c2OC(C)(C)C3)CC1,-0.5,-0.435
COc1ccc(C(=O)C(O)c2ccc(OC)cc2)cc1 (stereo not given),-0.05,0.205
CN(c1ccc(Br)cc1)S(=O)(=O)c1ccc2[nH]cc(C(=O)N3CCc4ccccc43)c(=O)c2c1,.,0.81
NS(=O)(=O)c1ccc(C(=O)N/N=C/c2ccc([N+](=O)[O-])o2)cc1,.,-3.1
Cc1ccc(S(=O)(=O)N2c3ccccc3C3NC2c2ccccc2N3S(=O)(=O)c2ccc(C)cc2)cc1,.,-0.02
O=C(Nc1cccc2c1C(=O)c1ccccc1C2=O)c1ccc(S(=O)(=O)N2CCCC2)cc1,.,-0.565
COCc1cc(=O)n2[nH]c(-c3ccccc3)cc2n1,-0.5,19.8
CCc1cc2c3c([nH]c2cc1S(=O)(=O)NC(C)(C)C)CCCC3=O,1.35,-0.51
CC(C)N(C(=O)CSc1ncn[nH]1)c1ccccc1,0.8,0.14
N#C/C(=C\C=C\c1ccccc1)C(=O)N1CCCC1,0.75,.
Cc1cccc(N2CCN(C(=O)OCC#Cc3ccccc3)CC2C)c1 (stereo not given),.,-0.515
O=C(c1cc2cc(Br)ccc2oc1=O)N1CCSC1c1ccccc1Cl (stereo not given),.,0.225
O=C(O)C1CCCCN1S(=O)(=O)c1cccc2nsnc12 (stereo not given),0.8&0.15,-1.27
CCCCN1/C(=C/C=C/c2n(CCCC)c3cc(Cl)c(Cl)cc3[n+]2C)N(C)c2cc(Cl)c(Cl)cc21,.,-0.92
COc1ccc2c(c1)nnc1nnc(SCC(=O)NN)n12,.,-0.225
Cn1c(/C=N/O)nc2ccccc21,-0.95,53.5
CC(=O)N1CCC(N(C(=O)c2ccc(C(F)(F)F)cc2)c2ccc3[nH]c(C)cc3c2)CC1,.,-0.03
COc1ccc(NC(=O)c2cc(-c3ccccc3)nc3ccccc23)c([N+](=O)[O-])c1,.,-0.2
CCOC(=O)c1c(C)c(C(=O)C(F)(F)F)c2ccccn12,-0.3,.
COC(=O)C1(C(=O)OC)Sc2ccccc2C1=O,-0.75,.
CCN(CC)CCCCCCOC(=O)NCc1ccc(S(N)(=O)=O)cc1,.,-0.775
COc1ccc(-c2cn(/N=C/c3ccc(Cl)cc3Cl)c(N(C(C)=O)C(C)=O)n2)cc1,.,-0.515
Cc1cc(C)nc(Sc2ccc(NC(=O)NC(=O)c3c(F)cccc3F)cc2)n1,.,0.11
O=C(NN=C1CCN(S(=O)(=O)c2ccccc2)CC1)c1ccc(Cl)cc1,.,-0.715
COc1ccccc1Nc1cc(=O)[nH]c(=O)[nH]1,2,0.175
O=C(CSc1nc2ccccc2c(=O)n1CC1COc2ccccc2O1)NCc1ccccc1 (stereo not given),1.9,-0.185
CCOC(=O)Cn1cc(/C=C2\Sc3ccccc3C2=O)c2ccccc21,.,-0.625
CCCCC(=O)O/N=C1\C(=O)N(Cc2ccc(Cl)cc2)c2ccccc21,.,-0.98
Nc1ncnc2nc(SCc3ccc(Cl)cc3Cl)[nH]c12,0.15,0.435
CCCOc1ccc2c3c(c(=O)oc2c1)CCC3,0,18.6

(continued)
SMILES,AID504770,Ba CapD inh
Clc1ccc(COn2c(-c3ccccc3)nc3ccc(Cl)cc32)cc1,.,0.17
CCN(CC)CCC(O)(c1ccccc1)C1CCCCC1 (stereo not given),-0.55,-0.095
COc1ccc2nc(NC(=O)C(C)C)sc2c1,0.9,-0.63
CCN(CC)CCNCc1cc(C)n(-c2cc(C)on2)c1C,0.15,.
COc1ccc(-c2csc3nc(C)cc(C)[n+]23)cc1,-0.75,0.21
O=C(COc1ncnc2c(Cl)cc(Cl)cc12)NCCCN1CCCC1=O,0.2,.
COc1ccc(NC(=O)c2sc3ncnc(N4CCN(c5ccccn5)CC4)c3c2C)cc1OC,.,-0.155
CNC(=S)N/N=C(\C)c1ccc(N2CCOCC2)cc1,0.15,.
CCCn1c(SC(C)C(=O)C23CC4CC(CC(C4)C2)C3)n[nH]c1=O (stereo not given),0.1,.
CCOc1ccc(NC(=O)CN2C(=O)S/C(=C/c3ccc(Cl)cc3)C2=O)cc1,1.4,0.355
CCC(Oc1ccccc1)C(=O)N1CCN(c2ccc(OC)cc2)CC1 (stereo not given),0,0.145
CC1=C(C(=O)OCCc2ccccc2)C(c2ccccc2Cl)CC(=O)N1 (stereo not given),.,-0.815
O=C(COC(=O)c1ccc(-n2cnnn2)cc1)c1ccc(S(=O)(=O)N2CCCCC2)cc1,1.95,.
CCOC(=O)c1c(C)n(-c2ccccc2)c2cc(Br)c(O)c(CN3CCOCC3)c12,.,-0.17
CCN(C(=O)C1CCN(S(=O)(=O)c2cccc3nonc23)CC1)c1ccccc1,-1.15,0.64
CN(C(=O)CN(CCO)CC(=O)N(C)C(C)(C)Cc1ccccc1)C(C)(C)Cc1ccccc1,0.8,0.215&-0.195
CCOC(=O)c1c(C)nn(-c2ccc(NC(=O)Nc3ccccc3)cn2)c1C,.,1.31
O=S(=O)(NCc1ccccc1Br)c1cccs1,.,-0.23
CC1CCC(NC(=O)Cn2ncc3ccccc32)CC1 (stereo not given),0.4,-0.48
O=C(Nc1nc(-c2ccc(Cl)cc2)cs1)C1c2ccccc2Oc2ccccc21,1.65,0.31
COc1cc(OC)nc(-c2ccc(NC(=O)c3ccc(C(C)(C)C)cc3)cc2)n1,.,0.74
Cc1nc(N2CCN(C)CC2)c2c(C)c(C(=O)Nc3ccc(F)cc3Cl)sc2n1,.,1.6
Cc1cc(Cl)ccc1NCC(=O)N/N=C/c1ccc2c(c1)OCO2,0.5,-0.065
Nc1nc(NCc2ccccc2)c(I)c(=O)[nH]1,1.2,3.35
O=C(NC1CCCCC1)N1CCn2cccc2C1c1cccnc1 (stereo not given),0.25,.
Cc1cc(SCCS(=O)(=O)CCSc2cc(C)c(Cl)cc2C)c(C)cc1Cl,.,0.755
Cc1ccc(C)c(NC(=O)CCn2ccc(C)n2)c1,-0.95,-1.47
COc1cc2c(cc1NC(=O)C(C)Sc1nc3ccccc3c(=O)[nH]1)oc1ccccc12 (stereo not given),1.5,.
Cc1ccc(N=C(NOCc2ccccc2Cl)c2nonc2N)cc1,.,0.03
CC(O)c1cccc2ccccc12 (stereo not given),-0.65,0.23

Pulled one by one from above (three):
SMILES,AID504770,Ba CapD inh
O=C(NC1CCCCC1)N1CCn2cccc2C1c1cccnc1 (stereo not given),0.25,.
CN(C(=O)CN(CCO)CC(=O)N(C)C(C)(C)Cc1ccccc1)C(C)(C)Cc1ccccc1,0.8,0.215&-0.195
COc1ccc(NC(=O)c2sc3ncnc(N4CCN(c5ccccn5)CC4)c3c2C)cc1OC,.,-0.155

Next section
SMILES,AID504770,Ba CapD inh
CN1CCCC1c1cccnc1N (stereo not given),1.45,i
COc1ccc(S(=O)(=O)N2CCN(C(=S)NCC3CCCO3)CC2)cc1OC (stereo not given),0.8,-0.39
O=C(Nc1ccccc1)C1C(=O)NC23CCCCC2C1c1ccccc1O3 (stereo not given),0.55,.
Cc1ccc2c(C(=O)CNc3nncs3)c(C)[nH]c2c1,0.05,-0.03
N#C/C(=C1/NC2(CCCCC2)Cc2ccccc21)c1ccccc1,.,-0.045
COc1nc(N)nc(-c2csc(C)n2)n1,0.6,-0.78
N#Cc1c(-c2ccccc2)c[nH]c1N,0.25,1.38
Cc1cccc(NC(=O)CNC(=O)COc2ccc3oc4ccccc4c3c2)c1C,0.1,.
CCOc1cc(-c2noc(CCCC(=O)NC3CCCCC3)n2)cc(Br)c1OC,0,-0.11
O=C(/C=C/c1ccccc1)Nc1ccc(Br)cc1,0.8,-0.81
CC(C)NS(=O)(=O)c1ccc(N2C(=O)c3ccccc3C2=O)cc1,-0.35,.
CC1=CCC2C(=O)N(c3ccc(C(=O)Nc4ccccc4)cc3)C(=O)C2C1 (stereo not given),-0.45,29.8
COc1ccccc1-n1c(CNC(=O)c2ccco2)nnc1SCC(=O)N1CCc2ccccc21,.,-0.72
O=C(Nc1cccnc1Oc1ncnc2cc(Cl)ccc12)c1ccc(F)cc1,0.7,0.4
O=C(CC1OC(=O)c2ccccc21)N/N=C/c1ccc(C(F)(F)F)cc1F (stereo not given),.,-0.42
Cc1ccc(CSCC(=O)NCCc2ccc(Cl)cc2)cc1,0.3,-0.15
N#Cc1cc([N+](=O)[O-])ccc1-n1cccc1,.,-1.22
Cc1ccccc1C(=O)Nc1nc(SCc2ccc(Cl)cc2)n[nH]1,2.85,-0.61
O=C(CSc1nccn1-c1ccccc1)Nc1ccc2c(c1)OCO2,-0.7,-0.42
CC(=O)OC1CC(C)(C)N(O)C(C)(C)C1,-0.5,0.49
Cc1cc(C)n(-c2ccc(C(=O)Nc3ccccc3)cc2)n1,-0.2,-0.87
O=S(=O)(NCc1ccccc1Cl)c1cccc2nsnc12,-0.2,-0.18
CO/N=C/c1nc2ccccc2s1,-0.5,-3.24
NC(N)=Nc1nc(CSCC/C(N)=N\S(N)(=O)=O)cs1,0.25,0.085
COC(=O)c1sc(NC(=O)c2ccc3c(c2)OCO3)c(C#N)c1C,-0.05,.
CC(C)c1nnc2sc(-c3cccc4ccccc34)nn12,-1.15,.
COc1ccccc1NC(=O)N(Cc1cc2c(C)ccc(C)c2[nH]c1=O)CC1CCCO1 (stereo not given),-0.4,.
O=C(CCN1C(=O)/C(=C\c2cccs2)SC1=S)Nc1cccc(C(=O)O)c1,.,-2.76
NC(=O)c1ccc(OCC(=O)N(c2ccccc2)C2CCS(=O)(=O)C2)cc1 (stereo not given),-0.85,.
O=C(Nc1cc(S(=O)(=O)c2ccccc2)cs1)c1ccc(Cl)cc1,-1.4,0.05

Single records, as listed above:
Profile of O=C(Nc1cc(S(=O)(=O)c2ccccc2)cs1)c1ccc(Cl)cc1 → AID504770 = -1.4; Ba CapD inh = 0.05
Profile of COc1ccccc1-n1c(CNC(=O)c2ccco2)nnc1SCC(=O)N1CCc2ccccc21 → AID504770 = .; Ba CapD inh = -0.72

(continued)
SMILES,AID504770,Ba CapD inh
CC(=O)Nc1sc2c(c1CN1CCCCC1)CCCC2,2.35,-0.01
CC1(C)CN=C(Nc2ccc(F)c(F)c2)S1,-0.95,0.96
Cc1ccc2c(c1)C1C=CCC1C(c1ccc(N=Cc3ccccc3)cc1)N2 (stereo not given),2.8,-3.41
COc1ccc2oc(=Nc3cccc(C(F)(F)F)c3)c(C(=O)NC(C)=O)cc2c1,.,0.125
O=C(NCCN1CCCCC1)c1ccccn1,-0.65,-0.205
CC1(C)C2CCC1(CS(=O)(=O)Nc1ccccc1)C(=O)C2 (stereo not given),2,.
CCOC(=O)Cc1nc2cc(S(C)(=O)=O)ccc2n1Cc1ccccc1,.,-0.115
CCOC(=O)c1sc(Nc2ccccn2)nc1C,0.15,32.6
CC(=O)OCC1OC(n2ccc(=O)[nH]c2=S)C(OC(C)=O)C1OC(C)=O (stereo not given),.,-0.455
Cc1ccccc1OCC1CN(CN(CC(C)C)CC(C)C)C(=O)O1 (stereo not given),2.05,-1.11
CCC(=O)N1CCc2cc(S(=O)(=O)N(C)CC(OC)OC)ccc21,-0.7,0.56
CCOc1ccc(NC(=O)CC(=O)Nc2ccc(OCC)cc2)cc1,1.1,.
O=C(Nc1sc2c(c1C(=O)O)CCC2)c1ccccc1,-0.2,-1.12
CC1(C)c2ccccc2N2CCC(=O)NC21/C=C/c1ccc(Br)cc1 (stereo not given),.,-0.29
COc1ccc2oc(=O)cc(CN3CCN(c4cccc(C)c4)C(C)C3)c2c1 (stereo not given),-0.6,1.03
O=C(CSc1nnc(-c2ccc(F)cc2)c2ccccc12)NC(=O)NCc1ccco1,0.65,.
COc1ccc(Cl)cc1N(C)C(=O)Cn1ncc2c1-c1ccccc1OC2,0.95,-0.485
CCN(CC)CCNS(=O)(=O)c1cc(C)ccc1OC,.,0.19
FC(F)(F)C1(C(F)(F)F)N=C(N2CCOCC2)OC(N2CCOCC2)=N1,-0.2,0.18
CCOC(=O)Cn1c(=O)n(C2CCCC2)c(=O)c2ccccc21,0.3,0.615
Cn1c2c(c(=O)[nH]c1=O)C(c1ccc(Cl)cc1Cl)C1=C(N2)c2ccccc2C1=O (stereo not given),.,-0.44
CC1CC(N(C(=O)c2ccc(Cl)cc2)c2ccccc2)c2ccccc2N1C(=O)c1ccco1 (stereo not given),-0.45,-1.21
COc1cc(OC)cc(C(=O)N2c3ccccc3N3C(c4c(C)cc(C)cc4C)=NON23)c1,0.05,0.265
Cc1cc2ccccc2n2c(SCC(=O)NCC3CCCO3)nnc12 (stereo not given),1.85,0.48
Cc1sc(-c2ccc(Cl)cc2)nc1CC(=O)O,-1.45,63.4
O=C(COC(=O)C1=COCCO1)NCc1ccc(Cl)cc1,0.65,.
CN(CCc1ccccn1)Cc1ccc(Cl)cc1,-0.8,-1.09
CC1CCCCC1NC(=O)COC(=O)c1ccc(C#N)cc1 (stereo not given),-0.25,.
CCCc1c(C)nc(-c2cccc(C)c2)[nH]c1=O,-0.45,-0.295
Cc1cc(C(=O)N2CCC(C)CC2)nc2c1c(C)nn2-c1ccccc1,-0.65,3.96
CC1(C2CCC3C4CCC5CC6(C/C(=N\O)C5(C)C4C(O)CC32C)OCCO6)OCCO1 (stereo not given),-0.2,.
